# HPGD inh – blocks human HPGD enzyme activity. Potency, µM, for the others: at the top dose activity change, negative = inhibition, hits mostly inhibitors. P15428. purified HPGD, NADH fluorescence kinetic, PGE2 substrate. 150,000 compounds, 4.3% hits; active = well fitted inhibition curve with a large enough effect (not every such curve was filed as active); inconclusive = small, poorly fitted or top-dose-only effect, or another doubt; inactive = no such curve, though single readings can be large or run the other way;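 further: top concentration of the series not given in the record; plate controls included wells without enzyme; inactives centre near -10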
# Target sequence (P15428 whole entry, looked up): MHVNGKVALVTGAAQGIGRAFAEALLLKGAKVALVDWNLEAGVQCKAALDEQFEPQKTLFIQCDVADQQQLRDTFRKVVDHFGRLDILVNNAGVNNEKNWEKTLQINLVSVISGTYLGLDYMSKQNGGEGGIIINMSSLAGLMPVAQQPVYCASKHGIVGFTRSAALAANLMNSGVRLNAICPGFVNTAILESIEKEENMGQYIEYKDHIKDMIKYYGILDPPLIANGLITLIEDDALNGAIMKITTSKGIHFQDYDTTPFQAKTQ
#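 NADH formation kinetics: reaction with 30 uM PGE2 and 1 mM NAD+ (final), 20 nM enzyme, Tris-HCl pH 8 with Tween 20, after 15 min compound preincubation at room temperature. Fluorescence change, last versus first of five reads.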
# Numbers without * were called inactive; ? = inconclusive. On the % scale 0 is the no-effect control and ±100 the full control effect; potency means the concentration at half of the fitted maximal effect. This is a subset; count on the stated rates, not on these rows.
smiles | HPGD inh
C[C@@H](C(=O)Nc1nc(-c2ccccn2)cs1)N1C(=O)C2CCCCC2C1=O (stereo not given in full) | 25µM*
CC(=O)Nc1ccc(S(=O)(=O)N(C)c2ccccc2)cc1 | -12%
CCC(=O)NC(=S)Nc1ccc(NC(=O)c2ccccc2[N+](=O)[O-])cc1 | -19%
CCN(CC)CCn1c(NCc2ccc(OC)cc2)nc2ccccc21 | -6%
Cc1nn(-c2ccccc2)c(N)c1C(c1ccccc1)c1c(C)nn(-c2ccccc2)c1N | -5%
COc1ccccc1-c1nnc2sc(C3CCCCC3)nn12 | 28µM*
CCOc1ccccc1Nc1nnc(SC(C)C(=O)Nc2nc(-c3ccccc3)cs2)s1 (stereo not given) | -8%
CCOC(=O)N1CCC(NC(=O)c2cnn3c(C(F)(F)F)cc(-c4cccc(OC)c4)nc23)CC1 | ?
COc1ccc(C(=O)N2CCC3(CC2)CN(C(=O)NC(C)C)C3)cc1 | -2%
CC(NC(=O)c1ccco1)C(c1cccs1)N1CCN(c2ccccc2)CC1 (stereo not given) | -5%

# (continued)
smiles | HPGD inh
O=C(Nc1ccc2c3c(cccc13)CC2)c1ccc(Br)o1 | -4%
O=C(COC(=O)c1ccccc1C(=O)N1CCN(c2ccccc2)CC1)Nc1ccc(F)cc1 | -3%
Clc1ccc(-c2noc(CN3CCN(c4ccccc4)CC3)n2)cc1 | -3%
c1ccc(-c2nnc3sc(-c4csc5c4CCCC5)nn23)cc1 | 11µM*
N#CC(C#N)=C1CCc2ccccc2N1 | -6%
O=S(=O)(c1ccc(N2CCOCC2)cc1)N1CCOCC1 | -8%
COc1cccc2cc(C(=O)N3CCN(C45CC6CC(CC(C6)C4)C5)CC3)c(=O)oc12 | -28%
O=C(/C=C/c1ccc(O)c(O)c1)O[C@@H](C(=O)O)[C@@H](OC(=O)/C=C/c1ccc(O)c(O)c1)C(=O)O | -10%
OC1CCN(c2ncnc3c2nnn3Cc2c(F)cccc2Cl)CC1 | -3%
O=C(COC(=O)Cc1ccc(-c2ccccc2)cc1)NCc1ccc(F)cc1 | -3%

# Gathered by group: the compounds so far containing a thiophene ring, fused or not
smiles | HPGD inh
CC(NC(=O)c1ccco1)C(c1cccs1)N1CCN(c2ccccc2)CC1 (stereo not given) | -5%
c1ccc(-c2nnc3sc(-c4csc5c4CCCC5)nn23)cc1 | 11µM*

# More records follow:
smiles | HPGD inh
Clc1cccc(-c2nnc(SC/C=C/c3ccccc3)n2Cc2ccco2)c1 | -12%
COc1cc(-c2n[nH]c(=S)n2-c2cc(C(F)(F)F)ccc2Cl)cc(OC)c1OC | -19%
CCCn1c(=O)c2ccccc2n2c(SCC(=O)c3ccccc3)nnc12 | -20%
O=C(NCCNC(=O)c1cccs1)c1ccco1 | -9%
COc1cc(C2Nc3ccc4ncccc4c3C3=C2C(=O)CCC3)ccc1O (stereo not given) | -17%
O=C1CC(c2ccccc2)CC(O)=C1C=NCCCO (stereo not given) | -8%
COCCn1c(SCC(=O)N2CCCC2)nnc1C(C)C | -4%
O=C1NC(=O)C(c2ccccc2[N+](=O)[O-])=C1Nc1ccc(O)c(Cl)c1 | -14%
CS(=O)(=O)c1cccc(C(=O)NC(c2ccccc2)c2ccccc2)c1 | -23%
CCOc1ccccc1N1CCN(S(=O)(=O)CC)CC1 | -24%

# Going on with the list:
smiles | HPGD inh
CC(=O)c1cc(F)c(N2CCCCCC2)cc1C | -22%
Cc1c(NC(=O)CSc2nnc3sc4ccccc4n23)c(=O)n(-c2ccccc2)n1C | -5%
Cc1ccc2cc(C#N)c(N3CCCN(C(=O)C4CCCO4)CC3)nc2c1 (stereo not given) | ?
COc1ccc(-n2cnc3cc(NCc4ccccn4)ccc32)cc1 | -16%
Cn1c(=O)n(C)c(=O)n(CC(=O)N2CCCCC2)c1=O | -9%
Cc1nc2ccccc2c(=O)n1NC(=O)/C=C/c1ccccc1 | -4%
Fc1ccc(CNc2cnccn2)cc1 | ?
CCc1cc2c(=O)c(-c3nc(C)cs3)coc2cc1OC(C)C(=O)NCCO (stereo not given) | -8%
O=C(NCCCN1CCN(c2ccccc2)CC1)Nc1ccccc1C(F)(F)F | -7%
Cc1ccc(S(=O)(=O)/C(C#N)=C/c2c(N3CC(C)OC(C)C3)nc3c(C)cccn3c2=O)cc1 (stereo not given) | 2.2µM*

# Other compounds follow:
smiles | HPGD inh
Nc1nc(-c2cccs2)c(NC(=O)c2ccccc2)s1 | -6%
CC(C)CN(C(=O)COC(=O)c1ccccc1SCC(=O)NC1CCCCCC1)C1CCS(=O)(=O)C1 (stereo not given) | -22%
O=C(Oc1ccc(-c2nc(-c3ccccn3)no2)cc1)c1ccccc1 | -1%
COc1ccccc1NC(=O)CSc1nc2n[nH]c(C)c2c(=N)n1-c1ccccc1Cl | -30%
CN(C(=O)COC(=O)c1ccccc1SCC(=O)NC1CCCCCCC1)C1CCS(=O)(=O)C1 (stereo not given) | ?
CC(=O)N1CCCc2cc(S(=O)(=O)NC(C(=O)NC(C)c3ccccc3)C(C)C)ccc21 (stereo not given) | -4%
CCC(C)N1C(=O)C2C(C(=O)Nc3cccc(OC)c3)C3C=CC2(O3)C1C(=O)NC1CCCCC1C (stereo not given) | -9%
Cc1occc1C(=O)NCc1ccc(C(=O)O)o1 | -13%
O=C(CCc1ccccc1)NNC(=O)COc1ccccc1 | -1%
CNC(=O)c1sccc1SCc1ccc(Cl)cc1Cl | -15%

# An excerpt from above in order of their number in HPGD inh, low to high:
smiles | HPGD inh
Cc1occc1C(=O)NCc1ccc(C(=O)O)o1 | -13%
Nc1nc(-c2cccs2)c(NC(=O)c2ccccc2)s1 | -6%
CC(=O)N1CCCc2cc(S(=O)(=O)NC(C(=O)NC(C)c3ccccc3)C(C)C)ccc21 (stereo not given) | -4%

# (list continues)
smiles | HPGD inh
Cc1ccc2oc3c(c(=O)c2c1)C(c1cccc(Br)c1)N(Cc1ccco1)C3=O (stereo not given) | -4%
O=C(/C=C/c1ccco1)NC(=S)Nc1ccc(O)c(-c2nc3ccccc3s2)c1 | -20%
O=C(O)CNC(=O)C1COc2ccccc2O1 (stereo not given) | -4%
Cc1ccccc1/C=N/NC(=O)c1sccc1C | -26%
Cc1ccc(C(C(=O)NC2CCCCC2)N(CC2CCCO2)C(=O)CNC(=O)c2ccco2)cc1 (stereo not given) | -8%
O=C(Oc1ccccc1)c1cccc2cccnc12 | 2%
CS(=O)(=O)N1CCN(c2ccccc2NC(=O)c2cccc3ccccc23)CC1 | ?
CC1CCCCC1NC(=O)COn1nnc2ccc(Cl)cc21 (stereo not given) | -16%
[O-][N+](=Nc1ccccc1)c1ccccc1 | 1%
COC(=O)Nc1sc2c(c1C(=O)NC1CC1)CCCCCC2 | -11%

# Next structures.
smiles | HPGD inh
c1ccc(-n2nnnc2NCCc2c[nH]c3ccccc23)cc1 | -5%
Fc1ccccc1Cn1nnc(-c2ccc3c(c2)OCO3)n1 | -15%
CC(=O)N1CCc2cc(S(=O)(=O)NCCC(=O)Nc3ccc4c(c3)OCCO4)ccc21 | 5%
O=S(=O)(Nc1ncn[nH]1)c1ccc2ccccc2c1 | 0%
CCOC(=O)Cn1c(=NC(=O)CSC(C)=O)sc2cc(OC)ccc21 | -22%
Cc1ccc(C(=O)c2oc3ccccc3c2NC(=O)c2cc(-c3ccccc3O)n[nH]2)cc1 | -20%
CN1CCc2c(c3c(n2C)CCN(C)C3c2ccc(F)cc2)C1c1ccc(F)cc1 (stereo not given) | -4%
O=C(NC(=S)Nc1ccccn1)c1cc(-c2ccccc2)nc2ccccc12 | -24%
CCOC(=O)c1c(NC(=O)CN2CCN(c3ccc(Cl)cc3)CC2)sc(C)c1C | -21%
Cc1cc(C)c(NC2=NCC(=O)N2C2CCCCC2)c(C)c1 | -6%

# The list continues.
smiles | HPGD inh
O=C1NC(=O)C(Nc2cccc3ccccc23)S1 (stereo not given) | ?
CN(C(=O)c1ccncc1)c1nnc(-c2ccccn2)s1 | 14%
CCc1ccccc1NC(=O)CSc1nnc(-c2ccco2)n1N | -5%
Cc1ccc(S(C)(=O)=O)cc1S(=O)(=O)Nc1ccccc1 | 3%
CCc1ccc(N2CCN(C(=O)c3ccc(OC)c(OC)c3)CC2)cc1 | -5%
CC(C)C(=O)NC(c1ccco1)c1ccc2cccnc2c1O (stereo not given) | -6%
O=C(CN1C(=O)c2ccccc2S1(=O)=O)Nc1ccc(S(=O)(=O)N2CCCC2)cc1 | -6%
COc1ccc(N=C(NN)c2ccc3ccccc3n2)cc1 | ?
O=C(NCC1CCCO1)C(c1cccs1)N(C(=O)c1ccc(-c2ccccc2)[nH]1)C1CCCC1 (stereo not given) | -29%
COC(=O)CN1C(c2ccccc2)=Nc2ccc(Cl)cc2C1c1ccccc1 (stereo not given) | -8%

# (listing goes on)
smiles | HPGD inh
COc1ccccc1-c1ccc(C(=O)O)o1 | ?
Cc1cc2c(s1)c1cnn(CC(=O)NCCc3ccccc3)c(=O)c1n2C | -28%
CCOc1cc(NS(=O)(=O)c2ccc(Cl)cc2)c(OCC)cc1NC(=O)CC(C)C | -17%
CC(=O)c1c(O)cc(=O)n(-c2ccccc2)c1-c1ccc(Cl)cc1 | -12%
Clc1ccc(-c2nnc(NCc3ccccc3)c3ccccc23)cc1 | 5.6µM*
COc1ccc2cc(/C=C3\SC(=S)NC3=O)c(N3CCOCC3)nc2c1 | 20µM*
COC(=O)CSc1nnc(C)n1-c1cccc(OC)c1 | -19%
Cc1cc(C)cc(NCc2cc3c(cc2[N+](=O)[O-])OCO3)c1 | -14%
Cc1ccccc1C(=O)N/N=C1/SCC(=O)N1Cc1ccc2c(c1)OCO2 | ?
Cc1cc(C)cc(N2CC34C=CC(O3)C(C(=O)OCC(=O)NCc3ccco3)C4C2=O)c1 (stereo not given) | 0%

# New compounds follow:
smiles | HPGD inh
Cc1cc(C(=O)CSc2nnc(-c3cccs3)o2)c(C)n1-c1ccccc1 | -17%
O=C(Cn1cnc2c(cnn2-c2ccc(Cl)cc2)c1=O)NCCc1ccccc1 | -11%
CC(C)=C1C2CCC1C1C(=O)N(c3nc(-c4ccc(F)cc4)c(C)s3)C(=O)C21 (stereo not given) | -6%
O=C(O)CCC(=O)c1ccc(Cl)cc1 | 2%
CCn1c(=S)ccc2ccc(OC)cc21 | -5%
CC(NC(=O)c1cccc(Cn2cc([N+](=O)[O-])cn2)c1)c1ccc(C(C)(C)C)cc1 (stereo not given) | -10%
CCCCOc1ccc(C(C)NC(=O)C2CCCN(S(=O)(=O)CCC)C2)cc1 (stereo not given) | -8%
COc1ccc2cnoc(=O)c2c1OC | ?
O=C(N/N=C/c1c(F)cccc1Cl)c1ccc(Cn2cc(Br)cn2)o1 | -19%
O=C(Nn1c(Cc2cccs2)nc2ccccc2c1=O)c1ccc(F)c(F)c1 | -4%

# Overlap with the part before: three entries; new compounds follow.
smiles | HPGD inh
COc1ccc2cnoc(=O)c2c1OC | ?
O=C(N/N=C/c1c(F)cccc1Cl)c1ccc(Cn2cc(Br)cn2)o1 | -19%
O=C(Nn1c(Cc2cccs2)nc2ccccc2c1=O)c1ccc(F)c(F)c1 | -4%
CCOCCCNCc1cc(Br)ccc1OCc1ccccc1 | -8%
CC1CC(=O)C2=C(C1)Nc1ncnn1C2c1ccccc1 (stereo not given) | -25%
Cc1cc(C(=O)Nc2c(F)cc(F)cc2Br)c(C)o1 | -9%
NC(=S)N/N=C/c1ccccc1OCc1cccc(Cl)c1 | -5%
Cc1ccc(NC(=S)N(Cc2cccs2)Cc2cc3cccc(C)c3[nH]c2=O)cc1 | -13%
Cc1ccc(S(=O)(=O)N(C)CCCC(=O)Nc2ccncc2)cc1 | -5%
O=C(O)c1cn(-c2ccc(F)c(F)c2)c2c(F)c(F)c(F)c(F)c2c1=O | -4%
COc1cc(OC)c(OC)cc1/C=N/NC(=O)c1ccc(=O)n(C)c1 | -13%
COC(=O)C1=C(C)NC(=O)CC1c1ccc(C(=O)OC)cc1 (stereo not given) | -10%
CCCn1c(SCC(=O)Nc2cc(S(=O)(=O)N3CCOCC3)ccc2OC)n[nH]c1=O | ?

# Other results
smiles | HPGD inh
COCc1cc(=O)[nH]c(/N=C(\N)Nc2ccc(Oc3ccccc3)cc2)n1 | ?
O=C(NNS(=O)(=O)c1cc(Cl)cc(Cl)c1)c1sccc1-n1cccc1 | 5%
O=C1CNC(=O)/C1=C\N1CCCCC1 | -9%
CCCCCCCC[n+]1cccc(C(=O)N2c3c(nc(N)[nH]c3=O)NC(C)C2C)c1 (stereo not given) | -1%
O=C(CSc1nc2ccccc2o1)Nc1ccc(Cl)cc1 | -9%
CCOC(=O)c1ccccc1N1C(=O)C2Sc3[nH]c(=O)sc3C(/C=C/c3ccccc3)C2C1=O (stereo not given) | -16%
Cn1c(N)cc(=O)n(Cc2ccccc2)c1=O | ?
S=C(Nc1ccc(Oc2ccccc2)cc1)NC1CCCCC1 | -20%
Cc1nn(-c2ccccc2)c(C)c1NC(=O)c1cccs1 | -9%
CCCCC1=CC2=C(c3ccco3)C(=O)C(C)(OC(=O)c3ccc(OC)cc3)C(=O)C2=CN1c1ccccc1 (stereo not given) | -8%

# More entries.
smiles | HPGD inh
COCCCn1c(C)nnc1SCC(=O)NCc1ccco1 | 5%
Cc1ccccc1CSCC(=O)Nc1ccccc1-c1ccccc1 | -14%
CCn1c(-c2cc(Br)cc(OC)c2O)nc2cc(S(=O)(=O)N(C)C)ccc21 | ?
CC(=O)c1cccc(NC(=O)NCc2ccco2)c1 | -19%
COc1ccccc1CNC(=O)CSc1nc(-c2ccccc2)cn1N | -12%
COc1ccccc1-c1noc(-c2cc(OC)c(OC)c(OC)c2)n1 | -15%
CC(C)C(=O)NC(c1ccc([N+](=O)[O-])cc1)c1c(O)ccc2ccccc12 (stereo not given) | -13%
CCOC(=O)C1=C(C)Nc2nc3ccccc3n2C1c1ccccc1 (stereo not given) | ?

# Screening data: PubChem BioAssay, National Center for Advancing Translational Sciences (NCATS)
